CBX7 inh – CBX7 inhibition, primary AlphaScreen; O95931; AlphaScreen His6-CBX7 / biotin-H3K27me3 peptide binding; hits give low values; normalised signal (fraction of DMSO) (no concentration beside the values); 1.1% of 66,000 active; AID 1224903; in the data active = normalised signal below about 0.5;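 also: 100 nL library stock added to about 20 µL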
Target sequence (O95931 whole entry, looked up): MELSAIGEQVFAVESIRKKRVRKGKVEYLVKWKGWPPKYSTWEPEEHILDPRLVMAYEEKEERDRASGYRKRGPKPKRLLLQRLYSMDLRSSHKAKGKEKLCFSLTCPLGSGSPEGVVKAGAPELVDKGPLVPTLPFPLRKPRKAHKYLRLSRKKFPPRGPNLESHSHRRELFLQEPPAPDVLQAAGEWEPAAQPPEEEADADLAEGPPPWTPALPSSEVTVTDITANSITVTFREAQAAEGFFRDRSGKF
CBX7 inh z-score – further read-out of CBX7 inh, marked with its call; z-score; measured here: z-score of CBX7 signal; some inactives read as strong as hits; reference of the scale not given here;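 same signal on another scale; lower means less binding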
* marks the source's active call; other numbers are inactive results. These rows are one share of the data (hit frequency here may not be typical).

SMILES	CBX7 inh	CBX7 inh z-score
Cc1ccc2c(c1)N(CC(=O)N1CCOCC1)C(=O)CO2	1	0.31
Cc1noc(C(=O)NCc2ccccn2)c1Cl	1	0.17
O=C(O)c1cccc(S(=O)(=O)c2ccc3c(c2)C(=O)N(c2cccnc2)C3=O)c1	1.1	1.4
Cc1nc2c(C(=O)N3CCCCC3)c[nH]n2c(=O)c1Cc1ccc(Cl)cc1	1.2	1.9
Oc1ccccc1-c1nc(Nc2ccc(F)c(F)c2)c2ccccc2n1	1	0.079
Nc1nonc1-n1nnc(C(=O)N2CCCCC2)c1-c1ccccc1	1	0.13
CCOc1ccccc1NC(=O)C(CC(C)C)NS(=O)(=O)c1ccc2c(c1)CCN2C(C)=O (stereo not drawn)	0.85	-1.9
COc1cccc(-c2nc(C(=O)NCc3ccc(Cl)cc3)c(C)o2)c1	0.96	-0.76
OCCCc1nc2ccccc2n1CCCOc1ccccc1	0.91	-0.9
O=C(Nc1nccs1)c1cn(-c2ccccc2)nc1-c1cccnc1	0.91	-0.33
COc1ccc(NC(=O)c2cnn3cccnc23)cc1Cl	1	-0.003
COCc1nc2ccccc2n1Cc1cccc(Cl)c1	1	-0.17
COc1cccc(-n2ccnc2SCC(=O)Nc2cc(OC)ccc2OC)c1	0.81	-2.9
Cc1ccc(C(=O)Nc2nnc(CCS(=O)(=O)c3ccc(Cl)cc3)s2)cc1	0.98	-0.83
COc1ccc(C(=O)CC2(O)C(=O)N(Cc3ccccc3C)c3ccccc32)cc1 (stereo not drawn)	0.89	-0.29
CCC1Oc2ccccc2N(CC(=O)NC(C)C)C1=O (stereo not drawn)	0.99	-0.056
CCCn1c(CCCNC(=O)Cc2ccccc2)nc2ccccc21	1.2	2.5
Cc1ccccc1OCC(=O)Nc1ncc(Cc2ccc(F)cc2)s1	0.97	-0.18
COc1ccc(Cl)cc1C(=O)Nc1ccc(C(=O)Nc2cccc(-c3nc4ccccc4o3)c2)cc1	0.97	-0.6
CCOC(=O)c1ccc(NC(=O)c2cc3c(n(-c4ccccc4)c2=O)CCCC3=O)cc1	1.1	1.4
CC(C)c1ccc(-c2csc(NC(=O)c3ccc(S(=O)(=O)N4CCCC4)cc3)n2)cc1	1	0.11
CCOC(=O)c1ccc2nc(C)cc(Nc3ccc(N4CCCCC4)cc3)c2c1	0.95	-0.57
COc1ccc(C2C(=O)N(C3CCCCC3)CC(=O)N2CCc2ccccc2)cc1OC (stereo not drawn)	1	-0.15
COc1ccc(-c2nc(-c3cccs3)[nH]c2-c2ccccc2)cc1OC	0.89	-2.6
COc1ccc(Cn2c(CCC(=O)Nc3ccc(OC)cc3)nc3cccnc32)cc1	1	0.97
CCCc1nc(NC2CCCCC2)c(C#N)c2c1CCCC2	1	1.2
Cc1cccc(Cn2c(COc3ccccc3)nc3ccccc32)c1	1.1	0.79
CCOCCCNC(=O)Cn1ncc2c1-c1ccccc1OC2	1.1	2.1
CCCCN(C)C(=O)c1cnc(Nc2ccc(C)c(Cl)c2)c2ccccc12	1.2	7.1
COC(CNC(=O)c1c[nH]c2ccc(S(=O)(=O)N(C)c3ccc(C)c(C)c3)cc2c1=O)OC	1.2	1.6
O=C(c1n[nH]c(=O)c2ccccc12)N1CCN(Cc2ccc3c(c2)OCO3)CC1	0.99	-0.045
COc1ccc(-c2nc(C(=O)NCc3cccnc3)c(C)o2)cc1	1	1.8
O=c1cc(N2CCN(c3ccccc3F)CC2)[nH]c(=O)n1-c1ccc(Cl)cc1	1.1	0.29
O=C(CSc1ncnc2sc(-c3ccccc3)cc12)Nc1ccc2c(c1)OCO2	1.1	0.066
CCOc1ccccc1-n1c(CCC(=O)O)ccc1-c1cccs1	0.93	-1.2
O=c1[nH]c(-c2ccc(Cl)cc2)nc2sc3c(c12)CCCC3	1.3	2.2
Cc1ccc(-c2nc(CS(=O)(=O)CC(=O)NCCCN3CCOCC3)c(C)o2)cc1	1.1	0.31
CC(C)(C)c1ccc(C(=O)N2CC(=O)Nc3ccc(Br)cc3C2c2ccc(F)cc2)cc1 (stereo not drawn)	0.8	-4
Cc1nn2c(C(F)(F)F)cc(-c3cccs3)nc2c1-c1ccccc1	0.76	-4.5
CCOc1ccc(C(=O)N(Cc2ccc(Cl)cc2)C2CCS(=O)(=O)C2)cc1 (stereo not drawn)	0.87	-0.13
CCCNC(=O)Cn1cnc2sc(C(=O)Nc3ccc(C)cc3Br)c(C)c2c1=O	1.1	1.1
O=C1c2ccccc2-c2onc3c(N4CCCC4)ccc1c23	0.37*	-9.9*
Cc1ccc(N2CC(c3nc4ccccc4n3Cc3ccccc3)CC2=O)c(C)c1 (stereo not drawn)	1.2	1.3
CCOc1ccc(C(=O)Nc2ccc3oc(-c4cccc5ccccc45)nc3c2)cc1	1	1.9
CCOC(=O)c1cc(-c2ccccc2)n(-c2cccc(C(=O)NC(C)CC)c2)c1C (stereo not drawn)	0.9	-1.8
COc1cccc(-c2nc(-c3ccccc3)c(-c3cccs3)[nH]2)c1	0.95	-0.34
Cc1cc(NC(=O)c2csc3c2CCCC3)ccc1Br	1.3	11
O=C(c1ccc2c(c1)N(Cc1cccc(Cl)c1)C(=O)CS2)N1CCCC1	1	1
O=C(Nc1cnc2ccccc2c1)c1cc2nc(-c3cccs3)cc(C(F)(F)F)n2n1	0.96	-0.66
Nn1cnn2c(SCC(=O)Nc3ccc(S(N)(=O)=O)cc3)nnc12	0.98	-0.7
Next structures
SMILES	CBX7 inh	CBX7 inh z-score
CC(=O)Nc1ccc(S(=O)(=O)Nc2nnc(C(C)C)s2)cc1	1	0.036
O=C(CSc1nnc(-c2ccc(Cl)cc2)o1)Nc1nccs1	0.87	-0.3
O=C(NC1CCCCC1)c1ccc2c(c1)N(Cc1ccccc1)C(=O)c1ccccc1S2	1	0.76
COc1ccc(C(=O)Nc2nc3ccc(S(N)(=O)=O)cc3s2)cc1	1	0.52
Cc1sc2ncn(CC(=O)NCC(=O)Nc3ccc(F)c(Cl)c3)c(=O)c2c1C	1	0.75
Cc1ccc(OCCSc2nc3ccccc3n2CC(=O)O)cc1	1	0.031
CCOc1ccc(NC(=O)c2nccnc2CO)cc1	1	0.59
CCc1ccc(NC(=O)C2c3ccccc3C(=O)N3CCc4ccccc4C23)cc1 (stereo not drawn)	0.87	-2.1
CCC(C)(C(=O)NC1CCCCC1)N(C(=O)c1ccccn1)c1ccccc1 (stereo not drawn)	1.2	2.5
Cc1ccccc1-c1nc2cc(NC(=O)c3ccc4ccccc4c3)ccc2o1	1.2	1.7
COc1cccc(CNC(=O)C2CCN(c3nc4ccc(C)cc4s3)CC2)c1	1	0.56
CC(C)OCCCNC(=O)c1ccc(NC2=NC3CS(=O)(=O)CC3S2)cc1 (stereo not drawn)	1	0.12
O=C1c2ccccc2C(Nc2ccc(Cl)cn2)N1c1cccnc1 (stereo not drawn)	1	0.25
Cc1cc(OCC(O)CN2CCN(c3ccccn3)CC2)ccc1Cl (stereo not drawn)	1.1	2.2
O=C(CCN1C(=O)c2ccccc2S1(=O)=O)Nc1ccc(F)cc1F	0.95	-1.4
COc1ccc2c(c1)c(CC(=O)Nc1ccc(Cl)cn1)c(C)n2C(=O)c1ccc(Cl)cc1	1.1	2.8
CCC1Oc2ccc(Cl)cc2N(CC(=O)NCc2ccc(C)cc2)C1=O (stereo not drawn)	1.5	1.1
CCC1CCc2c(sc(NC(=O)c3cnccn3)c2C(=O)OC)C1 (stereo not drawn)	0.96	-1
CCOc1cccc(C(=O)Nc2cccc(-c3nc4cc(C)cc(C)c4o3)c2)c1	0.92	-1.3
CCOc1ccc(N2CC(C(=O)Nc3cccc(OC)c3)CC2=O)cc1 (stereo not drawn)	1	0.047
O=C(CN1CCCC1)Nc1c(C(=O)C2CC2)oc2ccc(Cl)cc12	1	1.1
COc1ccc(NC(=O)c2c(NCc3cccnc3)sc3c2CCC(C)C3)c(OC)c1 (stereo not drawn)	0.46*	-7.5*
COc1ccc(OC)c(NC(=O)CSc2nccn2-c2ccc(Cl)cc2)c1	0.53	-1.7
Cc1ccc(-c2nn(C)c(=O)c3ccccc23)cc1CN1CCOCC1	1.1	2.5
O=C(Cn1nc(Cc2ccncc2)c2ccccc2c1=O)NCc1ccc(Cl)cc1	1.2	2.4
COc1ccc(-n2nc(C(=O)NCC(=O)Nc3cccc(C(F)(F)F)c3)c3ccccc3c2=O)cc1	1.2	3.6
O=C(CN1C(=O)CSc2ncccc21)NCc1ccc(F)cc1	1	0.72
Cc1ccc(N(Cc2nnc3n2CCCCC3)C(=O)Nc2ccc(Cl)c(Cl)c2)cc1	0.78	-3.9
Cc1cc(C)cc(C(=O)Nc2cccc(-c3nc4ncccc4o3)c2C)c1	1.1	2.2
CCOC(=O)c1ccc(Nc2nc3ccccc3nc2-n2nc(C)cc2C)cc1	1.2	3.9
Cc1noc(/C=C/c2cccs2)c1S(=O)(=O)N1CCC(C(=O)NCc2ccccc2Cl)CC1	0.93	-0.14
COc1ccc(CCNC(=O)Cn2c(=O)c3sccc3n(Cc3ccc(C)cc3)c2=O)cc1OC	1	0.28
Cc1cc(C)nc(Nc2nc3ccccc3c(=O)[nH]2)n1	0.97	-0.12
CCCCNC(=O)CN1C(=O)CSc2ccc(S(=O)(=O)N3CCCCC3)cc21	1	1.5
CCOc1ccccc1NC(=O)c1c(NCc2ccncc2)sc2c1CCC2	0.95	-0.9
CCn1c(SCCOc2ccc(C(C)(C)C)cc2)nc2ccccc21	1.3	8.8
COc1ccccc1CCNC(=O)c1cnc2scc(C)n2c1=O	0.88	-1.4
Cc1ccc(N2CCN(c3cc(C)nc4cc(-c5ccccc5)nn34)CC2C)cc1 (stereo not drawn)	0.78	-3.5
COc1ccccc1CNC(=O)CCc1c(C)nc2cc(-c3ccccc3OC)nn2c1C	1	1.1
O=C(c1cc2c(s1)-c1ccccc1OC2)N1CCN(c2cccc(Cl)c2)CC1	1.1	3.6
COc1ccc(-c2cc(C(=O)N3CCN(Cc4ccccc4)CC3)no2)cc1	1.1	1.2
Cc1ccc(CCNC(=O)CC2(CC3=NS(=O)(=O)c4ccccc4N3)CCCC2)cc1	1.1	2.1
COc1ccccc1OCC(=O)Nc1ncc(Cc2cccc(C(F)(F)F)c2)s1	0.87	-0.15
NC(=O)COc1ccc(-c2noc(COc3ccccc3)n2)cc1	0.98	-0.26
Cc1cccc(OCC(=O)Nc2sc3c(c2C(=O)OC(C)C)CCCC3)c1C	1.1	0.26
COc1ccc(Nc2oc(-c3ccc(F)cc3)nc2C#N)cc1	1.2	2.5
O=C(O)c1ccc2[nH]c(=O)c(Cc3ccc(F)cc3)nc2c1	1	0.41
CCN1CCN(c2ccc(NC(=O)CCc3c(C)nc4ncnn4c3C)cc2)CC1	1.1	1.2
CCCCSCCCNC(=O)CN1CCN(Cc2ccc(C)cc2)C1=O	0.96	-0.68
COc1ccc(CNC(=O)C(=O)NCc2ccc(Cl)cc2)cc1	1	0.51
Further entries:
SMILES	CBX7 inh	CBX7 inh z-score
CCOc1ccccc1-n1cnc2cc(C(=O)NCC(OCC)OCC)ccc21	0.92	-1.1
COc1ccc(Cl)cc1NC(=O)c1cnc(Nc2ccccc2OC)c2ccccc12	1.1	1.8
COc1ccc(CCNc2oc(COc3cccc(C)c3)nc2C#N)cc1	0.92	-3.5
CCOC(=O)c1c(NC(=O)c2ccc(OC)cc2)sc(C)c1C	1.1	2.4
Oc1ccc(-c2nc3cnccn3c2Nc2ccc3c(c2)OCO3)cc1	0.82	-1.5
COc1ccc(C2C(=O)N(C3CCCCCC3)CC(=O)N2Cc2ccc(F)cc2)cc1 (stereo not drawn)	0.83	-0.69
O=C1CCc2cc(S(=O)(=O)N3CCC(C(=O)N4CCc5ccccc54)CC3)ccc2N1	0.8	-5.2
FC(F)(F)c1cc(-c2cccs2)nc(NCc2ccc(Cl)cc2)n1	1.6	4.9
CCOc1ccc2nc(N3CCC(C(=O)NC4CCCC4)CC3)sc2c1	1.1	0.24
Cc1ccc(Nc2c(-c3ccc(N4CCOCC4)cc3)nc3ccc(C)cn23)cc1	0.83	-2.8
CCCNC(=O)C1C2C=CC3(CN(Cc4ccccc4Cl)C(=O)C13)O2 (stereo not drawn)	1.3	3.9
CNS(=O)(=O)c1cc(-c2nnc(Nc3ccc(Cl)cc3)c3ccccc23)ccc1C	0.84	-3.1
COc1ccc(CNc2ccc3c(c2)ncn3C(C)(C)C)cc1OC	0.72	-8
Cc1oc(-c2ccc(Cl)cc2)nc1C(=O)NC1CCCC(C)C1C (stereo not drawn)	1	0.11
CC(=O)Nc1ccc(-c2nc3ccc(-c4nc5ccccc5o4)cc3[nH]2)cc1	1	0.81

From PubChem
